High-throughput results from PubChem BioAssay.
rRNA inh HTS – inhibits bacterial ribosomal RNA function over humanized ribosomes; E. coli WT GFP vs humanized-ribosome RFP mutants, fluorescence, 24 h; active compounds read low; DMSO median 0, no signal -100; GFP signal change (wild-type ribosome), % (test concentration not listed); 350,000 tested, 1.6% active; AID 720706;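 active = significant combined selectivity score with lowered wild-type GFP, culture density cut under 30%, mutant RFP and density less affected; inactive = any of these conditions unmet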; also: one replicate is shown; some compounds called inactive have numbers as strong as hits
A1 inh – inhibitors of the anti-apoptotic protein A1, read as caspase activation | MEF A1-2A-BIM cells, Caspase-Glo 3/7 luminescence, 3 h; percent of clofoctol response, vehicle zero | caspase activation, % (no concentration beside the values) | 330,000 tested, 0.066% active;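 active = over half of replicate activation scores above 10%, or exactly half above 10 with the replicate mean above 10; inconclusive = replicate mean below 10 yet half the replicates above 10; inactive = over half of replicates below 10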;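 also: wells of about 30 µL received 50 nL stock; many hits fall short of the cut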
Vif A3G – HIV-1 Vif–A3G interaction blockers – biochemical, TR-FRET, GST-Vif 1-94, biotin-A3G peptide, dose response retest, primary screen (AID 1117319). TR-FRET GST-Vif / biotin-A3G peptide binding; higher % means a stronger effect; test concentration not given here; strong numbers were not always called active. one-dose inhibition, %; IC50 in µM for titrated hits. 260,000 tested, 0.57% active;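 active = above the screen mean plus three standard deviations and confirmed in dose response; inconclusive = results disagree or hit not tested in dose response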;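 also: Vif residues 1-94 fused to GST binding biotinylated APOBEC3G peptide 110-148; 0% = full assay without inhibitor and 100% = GST in place of GST-Vif; retest series ran down from 100 µM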
Calb FLC – affects C. albicans growth with fluconazole; C. albicans CaCi-2 (fluconazole-resistant clinical isolate) + fluconazole, Alamar Blue growth, 48 h; growth inhibition, % (no concentration beside the values); 300,000 tested, 0.57% active; AID 1979;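 active = most replicates above 75%; inconclusive = exactly half above 75%; inactive = most below 75%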;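 also: all wells also contain fluconazole at 8 µg/ml as a sub-toxic cotreatment; 0% = median of DMSO wells and 100% = median of geldanamycin control wells; wells of about 8 µL received 7.5 nL stock; the first replicate is given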
RanGTP-Impb inh – disruptors of Ran-importin-beta complex formation – biochemical, FRET, CFP-Ran, YFP-importin-beta, homogeneous, primary screen. cell-free CFP-Ran/YFP-importin-beta FRET ratio. inhibition, % (test concentration not listed). 300,000 tested, 1.1% active. AID 2216;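 active = most replicates above 15%; inconclusive = exactly half above 15%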;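 also: 0% = DMSO wells and 100% = Ran loaded with GDP instead of GTP; wells of about 40 µL received 100 nL stock; the first replicate is given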
T cruzi repl – blocks replication of Trypanosoma cruzi | T. cruzi beta-gal in NIH3T3, luminescence, 90 h | inhibition, % (concentration not given with the values) | 300,000 tested, 1.4% active | AID 1885;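 active = mean inhibition across valid replicates above about 55%, limit read from the data; inconclusive = mean below that limit but half or more replicates reach it; inactive = mean below it, under half of replicates reach it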;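 also: signal also drops with host cell toxicity which is not excluded here; 0% = plate median of DMSO wells and 100% = zero luminescence signal; higher percent means less beta-gal luminescence so fewer parasites; stock transfer was 50 nL into about 50 µL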
Beta apoptosis – blocks beta cell apoptosis. INS-1E cytokine-induced death, ATP luminescence, 48 h; percent of positive-control rescue, neutral wells zero. protection from apoptosis, % (no concentration beside the values). AID 435005. 300,000 tested, 0.8% active;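 active = all replicates at 75% or more, or half of them and the mean; inconclusive = half reach 75% but not the mean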;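 also: 0% = cytokine-treated negative control wells and 100% = positive control rescue; higher means more ATP so stronger rescue from cytokine killing; wells of about 40 µL received 100 nL stock; the first replicate is given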
MLL AF4-AF9 inh – inhibitors of human MLL-AF4/AF9 interaction; AlphaScreen, biotin-AF4 peptide binding to FLAG-AF9; inhibition, % at 10 µM; 350,000 tested, 0.47% active;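 active = every replicate reaching a set inhibition limit, whatever the replicate mean, cut at about 25% in these data; inconclusive = mean inhibition reaches that limit but some replicates miss it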;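 also: 0% = plate neutral control median and 100% = total signal loss; the record names both 10 and 1 µM as test concentration; the first replicate is given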
Target sequence (P42568 whole entry, looked up): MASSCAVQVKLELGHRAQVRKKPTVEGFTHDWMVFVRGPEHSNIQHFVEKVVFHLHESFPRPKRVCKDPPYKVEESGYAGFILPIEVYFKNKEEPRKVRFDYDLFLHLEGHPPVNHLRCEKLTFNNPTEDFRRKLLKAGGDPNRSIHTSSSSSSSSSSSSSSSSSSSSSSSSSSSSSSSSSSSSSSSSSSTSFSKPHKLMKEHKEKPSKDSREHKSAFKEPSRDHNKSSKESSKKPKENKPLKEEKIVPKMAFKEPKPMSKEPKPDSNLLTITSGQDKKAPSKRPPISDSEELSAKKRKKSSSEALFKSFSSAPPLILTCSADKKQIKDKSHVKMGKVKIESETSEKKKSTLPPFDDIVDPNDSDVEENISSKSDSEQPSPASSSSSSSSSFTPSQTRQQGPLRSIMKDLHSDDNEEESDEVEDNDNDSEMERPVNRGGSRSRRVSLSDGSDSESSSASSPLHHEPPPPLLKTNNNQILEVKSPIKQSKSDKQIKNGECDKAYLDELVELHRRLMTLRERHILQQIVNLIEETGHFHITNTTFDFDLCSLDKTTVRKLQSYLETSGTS
rRNA inh HTS OD600 – further read-out of rRNA inh HTS, marked with its call; OD600 change, %; measured here: OD600 growth;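 optical density of the mix in the first replicate; 0 = DMSO median and -100 = no signal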
rRNA inh HTS RFP – also measured in rRNA inh HTS; calls as there; RFP signal change, %; measured here: RFP humanized mutant strains;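 first replicate; 0 = DMSO median and -100 = no signal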
* = called active by the depositor; u = inconclusive; x = not tested or not shown.

Every second line gives: rRNA inh HTS | rRNA inh HTS OD600 | rRNA inh HTS RFP | A1 inh | Vif A3G | Calb FLC | RanGTP-Impb inh | T cruzi repl | Beta apoptosis | MLL AF4-AF9 inh
CCCCN(C(=O)c1ccc(N2CCCC2=O)cc1)c1c(N)n(CCCC)c(=O)[nH]c1=O
 : 9 | 10 | -0.6 | 0.4 | 2% | 8 | x | -3 | -11 | 3.4
O=C(Cc1ccccc1)NCCS(=O)(=O)N1CCN(c2cccc(Cl)c2)CC1
 : -11 | -1 | -1.5 | 0.4 | -6% | -6 | -1.6 | -4 | -3 | -1.3
COc1ccc(N=C2NC(=O)/C(=C/C=C/c3ccccc3)S2)cc1
 : 3 | 10 | 0.6 | -1.2 | -3% | -4 | -3.1 | -1 | -3 | 0.9
COc1cccc(OC)c1C(=O)N1CC(C)OC(C)C1 (stereo unspecified)
 : x | x | x | -1.0 | u | 0 | -1.0 | -4 | -2 | x
O=C1/C(=C/c2ccccc2)Nc2ccccc21
 : x | x | x | -0.6 | 3% | -16 | -5.4 | -32 | -4 | x
O=C(CSc1ccccc1)N1CCN(S(=O)(=O)c2ccccc2)CC1
 : 0 | 5 | 1.7 | -1.1 | 7% | -5 | 5.5 | -3 | x | 0.7
CN(C)/C=C/C(=O)c1ccc([N+](=O)[O-])c(CS(=O)(=O)c2ccccc2)c1
 : 3 | 11 | 2.4 | 0.6 | -3% | 4 | 2.0 | -3 | -6 | 0.5
COc1ccc(/C=N/NC(=O)c2ccc3c(c2)OCO3)cc1
 : 3 | 16 | -0.8 | -3.0 | 0% | 2 | 2.3 | -2 | 0 | -0.7
Oc1ccc(Nc2ccnc3cc(Cl)ccc23)cc1
 : 10 | 11 | -2.4 | -0.3 | 8% | 29 | 4.7 | -1 | 16 | 0.9
Cc1cc(C)c(OCC(=O)OCC(=O)NCC2CCCCC2)c(C)c1
 : 2 | 3 | -1.4 | 1.1 | -1% | 2 | x | -5 | 0 | -2.3

Every second line gives: rRNA inh HTS | rRNA inh HTS OD600 | rRNA inh HTS RFP | A1 inh | Vif A3G | Calb FLC | RanGTP-Impb inh | T cruzi repl | Beta apoptosis | MLL AF4-AF9 inh
Cc1ccc(N(CC(=O)NC2CCCCC2)C(=O)c2ccc(C)s2)cc1
 : x | x | x | 0.3 | -6% | 3 | 3.6 | 5 | 3 | x
Cc1cc(C)nc(NC(=NCc2ccc3c(c2)OCO3)NC(=O)Nc2ccccc2)n1
 : x | x | x | 0.2 | -7% | 122* | x | -12 | -7 | x
Cc1cc(NC(=O)CN2CCC(C)CC2)no1
 : x | x | x | 0.0 | x | -2 | -0.3 | -19 | 0 | -1.8
COc1ccc(C2=Nn3c(nnc3-c3ccccc3Cl)SC2)cc1OCC1CC1
 : -31 | -14 | -18 | -1.5 | x | x | x | x | 17 | 6.6
CC(=Nc1ccc(C)cc1)c1sc2ccccc2c1O
 : x | x | x | -5.4 | 6% | 1 | 73* | 41 | 9 | x
CNC(=O)NC(=O)C(c1ccccc1)N(C)CC1COc2ccccc2O1 (stereo unspecified)
 : -1 | -14 | 1.3 | 0.2 | x | -5 | -2.4 | 10 | 1 | 3.3
CCOC(=O)C1=C(N)n2c(s/c(=C/c3ccco3)c2=O)=C(C(=O)OC)C1c1ccco1 (stereo unspecified)
 : x | x | x | 0.0 | 2.2µM* | -3 | -1.3 | -35 | 9 | x
Nc1nc(F)nc2c1ncn2[C@@H]1O[C@H](CO)[C@@H](O)[C@@H]1O
 : x | x | x | 0.3 | 25% | x | 0.0 | -2 | -6 | -0.9
CC(=O)c1cccc(NC(=O)CN2C(=O)NC(C)(c3ccc4c(c3)OCCCO4)C2=O)c1 (stereo unspecified)
 : 5 | 2 | 1.9 | 0.5 | 19% | x | x | x | -3 | 2.0
N#CCCN(C(=O)CSc1nc2ccccc2c(=O)[nH]1)c1ccc(F)cc1
 : 5 | -8 | -3.0 | -0.3 | x | x | x | x | -6 | -0.8

Entries of single compounds, looked up by structure. Order of values: rRNA inh HTS, rRNA inh HTS OD600, rRNA inh HTS RFP, A1 inh, Vif A3G, Calb FLC, RanGTP-Impb inh, T cruzi repl, Beta apoptosis, MLL AF4-AF9 inh
Cc1ccc(N(CC(=O)NC2CCCCC2)C(=O)c2ccc(C)s2)cc1 across the screens: x, x, x, 0.3, -6%, 3, 3.6, 5, 3, x
CCOC(=O)C1=C(N)n2c(s/c(=C/c3ccco3)c2=O)=C(C(=O)OC)C1c1ccco1 (stereo unspecified) across the screens: x, x, x, 0.0, 2.2µM*, -3, -1.3, -35, 9, x
CC(=O)c1cccc(NC(=O)CN2C(=O)NC(C)(c3ccc4c(c3)OCCCO4)C2=O)c1 (stereo unspecified) across the screens: 5, 2, 1.9, 0.5, 19%, x, x, x, -3, 2.0
Nc1nc(F)nc2c1ncn2[C@@H]1O[C@H](CO)[C@@H](O)[C@@H]1O across the screens: x, x, x, 0.3, 25%, x, 0.0, -2, -6, -0.9

Later entries:
Every second line gives: rRNA inh HTS | rRNA inh HTS OD600 | rRNA inh HTS RFP | A1 inh | Vif A3G | Calb FLC | RanGTP-Impb inh | T cruzi repl | Beta apoptosis | MLL AF4-AF9 inh
COC(=O)c1cccc(-n2nnnc2SCC(=O)Nc2cc(C)on2)c1
 : x | x | x | 0.3 | -3% | -6 | 1.8 | -3 | -8 | x
CCc1noc(C)c1C(=O)N(CCOC)c1c(N)n(CC(C)C)c(=O)[nH]c1=O
 : 9 | 10 | 2.2 | 1.5 | x | 11 | -1.7 | -3 | 7 | -11
NCCCC[C@H]1CNC(=O)C(=O)N1CCc1cc(C(F)(F)F)cc(C(F)(F)F)c1
 : 19 | 8 | -1.4 | 0.1 | x | -7 | 8.8 | -20 | -2 | -0.5
CCOC(=O)C1(C)NC(c2cccs2)C2C(=O)N(c3ccc(OC)cc3)C(=O)C21 (stereo unspecified)
 : 9 | 7 | -1.6 | -0.4 | -1% | -9 | -3.8 | -10 | -9 | -0.2
COc1cc(NC(=O)CSc2nccc(C)n2)c(C(=O)O)cc1OC
 : x | x | x | 0.2 | 16% | 17 | u | -15 | 0 | x
Cc1cccc(NC(=S)NNC(=O)c2ccc(Br)o2)c1
 : x | x | x | -0.4 | 20% | -8 | -0.2 | -2 | -3 | x

Some of these compounds in order of heavy-atom count, rising.
Every second line gives: rRNA inh HTS | rRNA inh HTS OD600 | rRNA inh HTS RFP | A1 inh | Vif A3G | Calb FLC | RanGTP-Impb inh | T cruzi repl | Beta apoptosis | MLL AF4-AF9 inh
CC(=Nc1ccc(C)cc1)c1sc2ccccc2c1O
 : x | x | x | -5.4 | 6% | 1 | 73* | 41 | 9 | x
COc1ccc(N=C2NC(=O)/C(=C/C=C/c3ccccc3)S2)cc1
 : 3 | 10 | 0.6 | -1.2 | -3% | -4 | -3.1 | -1 | -3 | 0.9
CN(C)/C=C/C(=O)c1ccc([N+](=O)[O-])c(CS(=O)(=O)c2ccccc2)c1
 : 3 | 11 | 2.4 | 0.6 | -3% | 4 | 2.0 | -3 | -6 | 0.5
N#CCCN(C(=O)CSc1nc2ccccc2c(=O)[nH]1)c1ccc(F)cc1
 : 5 | -8 | -3.0 | -0.3 | x | x | x | x | -6 | -0.8
COc1ccc(C2=Nn3c(nnc3-c3ccccc3Cl)SC2)cc1OCC1CC1
 : -31 | -14 | -18 | -1.5 | x | x | x | x | 17 | 6.6
Cc1cc(C)nc(NC(=NCc2ccc3c(c2)OCO3)NC(=O)Nc2ccccc2)n1
 : x | x | x | 0.2 | -7% | 122* | x | -12 | -7 | x

An excerpt, so the mix of outcomes need not match the whole.
